Vaccinia stage: blocks a specific stage of Vaccinia orthopoxvirus infection; 89,000 tested, 0.01% active; Vaccinia-infected cells, mCherry/Venus stage reporter fluorescence; active compounds read low; some inactives read as strong as hits; AID 1053133; activity change (mCherry), % (no concentration beside the values);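 active = mCherry past -33% and 40 or more points under the early reporter, replicates agreeing; inconclusive = past -33% without that gap or agreement; tested in A549 cells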;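 also: scaled between vehicle wells and reference inhibitor wells; 23 nL library stock went into each well; one replicate is shown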
Vaccinia stage Venus: recorded beside Vaccinia stage, whose call it bears; activity change (Venus), %; measured here: Venus reporter, other viral stage;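 negative = less Venus signal; first of two replicates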
Active calls of the source: *. This is a subset. The share of hits here may be higher or lower than overall.

CCS(=O)(=O)NCC[C@@H]1CC[C@@H](NC(=O)C2CC2)[C@@H](CO)O1 was read as Vaccinia stage 13 and Vaccinia stage Venus 8.
For O=C(C[C@@H]1C=C[C@H](NC(=O)C2CCC2)[C@@H](CO)O1)NCc1ccccc1Cl the results were Vaccinia stage 9 and Vaccinia stage Venus 6.
For CNC[C@H]1Oc2c(NC(=O)C3CCOCC3)cccc2C(=O)N([C@@H](C)CO)C[C@@H]1C the results were Vaccinia stage -5 and Vaccinia stage Venus 0.
`O=C(Nc1ccc(F)cc1)N1CCCCN2[C@@H](CO)[C@H](c3ccc(C4=CCCCC4)cc3)[C@@H]2C1` gave Vaccinia stage inconclusive.
Screening CC(C)NC(=O)Nc1cccc2c1O[C@@H](CN(C)S(C)(=O)=O)[C@@H](C)CN([C@@H](C)CO)C2=O returned Vaccinia stage 22 and Vaccinia stage Venus 17.
`COc1ccccc1NC(=O)N(C)C[C@@H]1Oc2ncc(C#CCC(C)C)cc2C(=O)N([C@@H](C)CO)C[C@H]1C` gave Vaccinia stage -8 and Vaccinia stage Venus -3.
For C[C@@H]1CN([C@@H](C)CO)S(=O)(=O)c2ccc(C#CCC3CCCC3)cc2O[C@@H]1CN(C)C(=O)CN(C)C the results were Vaccinia stage inconclusive.
`CC(C)CC#Cc1cnc2c(c1)C(=O)N([C@H](C)CO)C[C@@H](C)[C@@H](CN(C)C(=O)c1cnccn1)O2` gave Vaccinia stage 2 and Vaccinia stage Venus -10.
For CO[C@H]1CN(C)C(=O)c2ccc(NS(C)(=O)=O)cc2OC[C@H](C)N(C(=O)C2CCCCC2)C[C@@H]1C the results were Vaccinia stage 12 and Vaccinia stage Venus 4.
For COc1ccc(CN(C)C[C@H]2Oc3c(NC(=O)Nc4ccc(C(F)(F)F)cc4)cccc3C(=O)N([C@H](C)CO)C[C@H]2C)cc1 the results were Vaccinia stage inconclusive.
`O=S(=O)(c1cccs1)N1CCCCN2[C@@H](CO)[C@@H](c3ccc(/C=C/c4ccccc4)cc3)[C@@H]2C1` gave Vaccinia stage inconclusive.
COc1ccc(CN(C)C[C@H]2Oc3c(NS(=O)(=O)c4cccs4)cccc3C(=O)N([C@@H](C)CO)C[C@@H]2C)cc1 was read as Vaccinia stage 19 and Vaccinia stage Venus 7.
COc1ccccc1C#Cc1ccc2c(c1)[C@H]1[C@H](CCN1S(=O)(=O)c1cccc(C)c1)[C@@H](CO)N2 was read as Vaccinia stage -16 and Vaccinia stage Venus 7.
`C[C@@H]1CCCCO[C@@H](CN(C)S(=O)(=O)c2ccc(Cl)cc2)[C@H](C)CN([C@H](C)CO)C(=O)c2cc(NS(=O)(=O)c3cccs3)ccc2O1` gave Vaccinia stage inconclusive.
Screening Cc1cc(C(=O)Nc2cccc3c2O[C@H](CN(C)Cc2ccccc2)[C@@H](C)CN([C@@H](C)CO)C3=O)n(C)n1 returned Vaccinia stage 4 and Vaccinia stage Venus 2.
O=C(C[C@@H]1CC[C@H]2[C@@H](COC[C@@H](O)CN2Cc2ccc(Cl)cc2)O1)NCc1cccc(F)c1 was read as Vaccinia stage inconclusive.
CN1CCCCN2[C@@H](CO)[C@@H](c3ccc(/C=C/c4ccccc4)cc3)[C@@H]2C1 was read as Vaccinia stage inconclusive.
COC(=O)[C@H]1[C@H](CO)[C@H]2Cn3c(ccc(-c4cccc(OC)c4)c3=O)[C@@H]1N2C(=O)c1cnccn1 was read as Vaccinia stage 9 and Vaccinia stage Venus 3.
`COc1ccc(S(=O)(=O)N(C)C[C@H]2OCCCC[C@@H](C)Oc3ccc(NS(=O)(=O)c4cccs4)cc3C(=O)N([C@@H](C)CO)C[C@@H]2C)cc1` gave Vaccinia stage -16 and Vaccinia stage Venus -1.
For C[C@@H]1CN([C@H](C)CO)C(=O)c2cc(C3=CCCCC3)cnc2O[C@@H]1CN(C)C(=O)Cc1ccncc1 the results were Vaccinia stage -13 and Vaccinia stage Venus -13.
`O=C(Cc1cccnc1)N1CCCCN2[C@H](C1)[C@@H](c1ccc(C#CC3CC3)cc1)[C@@H]2CO` gave Vaccinia stage -5 and Vaccinia stage Venus -15.
For CC(C)(O)C#Cc1ccc([C@H]2[C@H]3CN(Cc4ccccc4F)CCCCN3[C@H]2CO)cc1 the results were Vaccinia stage -5 and Vaccinia stage Venus 0.
`CC(C)NC(=O)Nc1ccc2c(c1)CC(=O)N([C@H](C)CO)C[C@@H](C)[C@@H](CN(C)C(=O)Nc1ccc3c(c1)OCO3)O2` gave Vaccinia stage 3 and Vaccinia stage Venus 1.
`CC(C)CC#Cc1cnc2c(c1)C(=O)N([C@H](C)CO)C[C@H](C)[C@H](CN(C)Cc1cccc(C(=O)O)c1)O2` gave Vaccinia stage 2 and Vaccinia stage Venus 5.
`O=C(c1ccccn1)N1CC(=O)N2[C@H](CO)[C@H](c3ccc(C#Cc4ccccc4)cc3)[C@@H]2C1` gave Vaccinia stage 23 and Vaccinia stage Venus 13.
Screening O=S(=O)(c1ccc(-c2ccccc2)cc1)N1C[C@@H]2N[C@H](C1)C2c1ccc(-c2ccccc2)cc1 (stereo partly drawn) returned Vaccinia stage -10 and Vaccinia stage Venus -6.
`COc1ccc2c3c(n(C)c2c1)[C@H](CO)NCC31CN(C(=O)Nc2ccccc2F)C1` gave Vaccinia stage 1 and Vaccinia stage Venus -4.
`O=C(N[C@H]1CC[C@@H](CC(=O)N2CCCCC2)O[C@@H]1CO)c1ccccn1` gave Vaccinia stage 6 and Vaccinia stage Venus 6.
Screening CC(C)C#Cc1ccc2c(c1)O[C@@H](CN(C)Cc1ccccc1)[C@H](C)CN([C@H](C)CO)S2(=O)=O returned Vaccinia stage -34 and Vaccinia stage Venus -33.
CCCC#Cc1ccc([C@H]2[C@H](C#N)N(C(=O)C3CC3)[C@H]2CO)cc1 was read as Vaccinia stage 6 and Vaccinia stage Venus 0.
COC(=O)C(CC#Cc1ccc2c(c1)[C@]1(C(=O)N2)[C@H](c2ccc(OCCO)cc2)N2[C@H](c3ccccc3)[C@H](c3ccccc3)OC(=O)[C@H]2[C@@H]1C(=O)N1CCc2cc(OC)c(OC)cc2C1)C(=O)OC was read as Vaccinia stage 6 and Vaccinia stage Venus 21.
COc1ccc(CN(C)C[C@@H]2Oc3ccc(NC(=O)Cc4ccccc4)cc3C(=O)N([C@H](C)CO)C[C@H]2C)cc1 was read as Vaccinia stage -2 and Vaccinia stage Venus 5.
C[C@@H]1CN([C@@H](C)CO)S(=O)(=O)c2ccc(-c3ccncc3)cc2O[C@@H]1CN(C)C(=O)c1ccc2c(c1)OCO2 was read as Vaccinia stage 24 and Vaccinia stage Venus 24.
Screening COc1ccccc1C#Cc1ccc([C@@H]2[C@@H](C#N)N(C(=O)C3CCCC3)[C@@H]2CO)cc1 returned Vaccinia stage -35 and Vaccinia stage Venus -22.
O=C(NCC[C@H]1CC[C@H](NC(=O)c2ccccc2F)[C@@H](CO)O1)c1ccc2c(c1)OCO2 was read as Vaccinia stage -16 and Vaccinia stage Venus -8.
For C[C@@H]1CN([C@H](C)CO)C(=O)c2cc(NC(=O)Nc3ccc(C(F)(F)F)cc3)ccc2O[C@H]1CN(C)Cc1ccc(Cl)c(Cl)c1 the results were Vaccinia stage inconclusive.
Screening COCC(=O)N1[C@H](CO)[C@@H](c2ccc(-c3ccccc3OC)cc2)C12CN(C(C)=O)C2 returned Vaccinia stage 2 and Vaccinia stage Venus 6.
Screening COc1ccc(NC(=O)Nc2ccc3c(c2)C(=O)N([C@H](C)CO)C[C@H](C)[C@H](CN(C)Cc2ccc(C(F)(F)F)cc2)O3)cc1 returned Vaccinia stage -13 and Vaccinia stage Venus -17.
C[C@H]1CN([C@@H](C)CO)S(=O)(=O)c2ccc(-c3cccnc3)cc2O[C@H]1CN(C)Cc1ccccn1 was read as Vaccinia stage 12 and Vaccinia stage Venus 2.
`CCC(=O)N(C)C[C@H]1Oc2cc(-c3cccc(OC)c3)ccc2S(=O)(=O)N([C@H](C)CO)C[C@@H]1C` gave Vaccinia stage 5 and Vaccinia stage Venus -9.
Screening CCC(=O)N[C@H]1CC[C@H](CC(=O)NCC2CCCCC2)O[C@H]1CO returned Vaccinia stage 13 and Vaccinia stage Venus 11.
For O=C(C[C@H]1CC[C@H](NC(=O)CCN2CCCCC2)[C@@H](CO)O1)Nc1nccs1 the results were Vaccinia stage 13 and Vaccinia stage Venus 15.
For CCS(=O)(=O)Nc1ccc2c(c1)C(=O)N(C)[C@H]1CC[C@@H](CC(=O)N3CCN(C)CC3)O[C@@H]1CO2 the results were Vaccinia stage 10 and Vaccinia stage Venus 13.
CC(C)C#Cc1ccc([C@H]2[C@H]3CN(C(=O)c4ccc(F)cc4)CCCCN3[C@H]2CO)cc1 was read as Vaccinia stage -21 and Vaccinia stage Venus -35.
Screening C[C@@H]1CN([C@H](C)CO)S(=O)(=O)c2ccc(C#CC3(O)CCCC3)cc2O[C@H]1CN(C)C(=O)c1ccccc1 returned Vaccinia stage 4 and Vaccinia stage Venus 3.
Screening CC=Cc1ccc2n(c1=O)C[C@H]1[C@H](CO)[C@@H](C(=O)N[C@H](C)c3ccccc3)[C@@H]2N1CC1CC1 (mixture of isomers) returned Vaccinia stage 4 and Vaccinia stage Venus -1.
For COc1ccc(NC(=O)N[C@H]2CC[C@H](CCn3cc(-c4ccccc4)nn3)O[C@@H]2CO)cc1 the results were Vaccinia stage -7 and Vaccinia stage Venus -1.
Screening COc1ccc(S(=O)(=O)Nc2ccc3c(c2)CC(=O)N([C@H](C)CO)C[C@H](C)[C@H](CN(C)Cc2ccc(C(=O)Nc4ccccc4N)cc2)O3)cc1 returned Vaccinia stage 12 and Vaccinia stage Venus 8.
COCC(=O)N1CCCCN2[C@H](C1)[C@H](c1ccc(-c3cccc(C)c3)cc1)[C@@H]2CO was read as Vaccinia stage inconclusive.
For CCC(=O)N1CC2(C1)[C@H](c1ccccc1)[C@H](CO)N2Cc1ccccc1F the results were Vaccinia stage 11 and Vaccinia stage Venus 17.
Screening O=C(N[C@@H]1CC[C@@H](CCNC(=O)c2ccccc2F)O[C@@H]1CO)c1ccc2c(c1)OCO2 returned Vaccinia stage 2 and Vaccinia stage Venus 1.
Screening COc1ccc(NC(=O)Nc2ccc3c(c2)CC(=O)N([C@H](C)CO)C[C@H](C)[C@H](CN(C)S(=O)(=O)c2ccccc2)O3)cc1 returned Vaccinia stage -9 and Vaccinia stage Venus -1.
Cc1ccc(S(=O)(=O)Nc2ccc3c(c2)CC(=O)N([C@H](C)CO)C[C@H](C)[C@H](CN(C)C(=O)Nc2ccc(C(F)(F)F)cc2)O3)cc1 was read as Vaccinia stage -21 and Vaccinia stage Venus -17.
CCc1csc(N2[C@@H](C#N)[C@@H](c3ccc(C4=CCCC4)cc3)[C@@H]2CO)n1 was read as Vaccinia stage -2 and Vaccinia stage Venus 3.
`COc1ccc2c3c(n(C)c2c1)[C@H](CO)N(CC1CC1)CC31CCN(C(=O)c2ccc(F)cc2)CC1` gave Vaccinia stage -7 and Vaccinia stage Venus -1.
Screening COc1ccc2c3c(n(C)c2c1)[C@@H](CO)N(C(=O)Cc1ccccn1)CC31CN(CC2CC2)C1 returned Vaccinia stage 5 and Vaccinia stage Venus 4.
C[C@@H]1CN([C@@H](C)CO)C(=O)Cc2cc(NS(=O)(=O)c3cn(C)cn3)ccc2O[C@H]1CN(C)CC1CC1 was read as Vaccinia stage 9 and Vaccinia stage Venus 8.
For COc1ccc(S(=O)(=O)Nc2ccc3c(c2)CC(=O)N([C@@H](C)CO)C[C@H](C)[C@@H](CN(C)Cc2ccccc2)O3)cc1 the results were Vaccinia stage -25 and Vaccinia stage Venus -20.
Screening C[C@@H]1CN([C@@H](C)CO)C(=O)c2cccc(NC(=O)Nc3cccc4ccccc34)c2O[C@H]1CN(C)C(=O)Nc1ccc2c(c1)OCO2 returned Vaccinia stage -34 and Vaccinia stage Venus -18.
C[C@@H]1CN([C@H](C)CO)C(=O)c2cccc(NC(=O)Nc3ccccc3)c2O[C@H]1CN(C)Cc1ccncc1 was read as Vaccinia stage -1 and Vaccinia stage Venus 2.

A stretch of the results above, as a working copy:
`COc1ccc2c3c(n(C)c2c1)[C@H](CO)N(CC1CC1)CC31CCN(C(=O)c2ccc(F)cc2)CC1` gave Vaccinia stage -7 and Vaccinia stage Venus -1.
Screening COc1ccc2c3c(n(C)c2c1)[C@@H](CO)N(C(=O)Cc1ccccn1)CC31CN(CC2CC2)C1 returned Vaccinia stage 5 and Vaccinia stage Venus 4.
C[C@@H]1CN([C@@H](C)CO)C(=O)Cc2cc(NS(=O)(=O)c3cn(C)cn3)ccc2O[C@H]1CN(C)CC1CC1 was read as Vaccinia stage 9 and Vaccinia stage Venus 8.
For COc1ccc(S(=O)(=O)Nc2ccc3c(c2)CC(=O)N([C@@H](C)CO)C[C@H](C)[C@@H](CN(C)Cc2ccccc2)O3)cc1 the results were Vaccinia stage -25 and Vaccinia stage Venus -20.
Screening C[C@@H]1CN([C@@H](C)CO)C(=O)c2cccc(NC(=O)Nc3cccc4ccccc34)c2O[C@H]1CN(C)C(=O)Nc1ccc2c(c1)OCO2 returned Vaccinia stage -34 and Vaccinia stage Venus -18.
C[C@@H]1CN([C@H](C)CO)C(=O)c2cccc(NC(=O)Nc3ccccc3)c2O[C@H]1CN(C)Cc1ccncc1 was read as Vaccinia stage -1 and Vaccinia stage Venus 2.

Next records follow.
`COCC(=O)N1C[C@@H]2[C@H](c3ccccc31)[C@H](CO)N2C(=O)C1CCOCC1` gave Vaccinia stage 7 and Vaccinia stage Venus 8.
`Cc1ccc(S(=O)(=O)Nc2ccc3c(c2)CC(=O)N([C@@H](C)CO)C[C@@H](C)[C@H](CN(C)C(=O)Nc2ccc(C(F)(F)F)cc2)O3)cc1` gave Vaccinia stage -8 and Vaccinia stage Venus -3.
For COc1ccc(S(=O)(=O)Nc2ccc3c(c2)C(=O)N([C@H](C)CO)C[C@H](C)[C@@H](CN(C)C(=O)Nc2ccc(F)cc2)OCCCC[C@@H](C)O3)cc1 the results were Vaccinia stage 0 and Vaccinia stage Venus -5.
For COc1cccc(NC(=O)Nc2ccc3c(c2)OC[C@H](C)NC[C@@H](C)[C@H](OC)CN(C)C3=O)c1 the results were Vaccinia stage 5 and Vaccinia stage Venus 9.

Screens deposited in PubChem BioAssay by Broad Institute.
